# WNV NS2B-NS3 inh = inhibitors of West Nile virus NS2B-NS3 protease; z-score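 (tested at a level between 10 and 100 µM)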; 65,000 compounds, 0.18% hits; WNV NS2B-NS3 protease, fluorogenic substrate Ex360/Em465; active compounds read low; P06935;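 active = z-score at -3 or under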;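 also: score is relative to mean and spread of the compound wells of a plate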
# Target sequence (P06935 1371-1501 limits assumed): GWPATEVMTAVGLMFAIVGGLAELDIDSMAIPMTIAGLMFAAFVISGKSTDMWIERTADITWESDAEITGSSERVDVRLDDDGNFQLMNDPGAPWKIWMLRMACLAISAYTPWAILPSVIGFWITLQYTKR
# Target sequence (P06935 1502-1679 limits assumed): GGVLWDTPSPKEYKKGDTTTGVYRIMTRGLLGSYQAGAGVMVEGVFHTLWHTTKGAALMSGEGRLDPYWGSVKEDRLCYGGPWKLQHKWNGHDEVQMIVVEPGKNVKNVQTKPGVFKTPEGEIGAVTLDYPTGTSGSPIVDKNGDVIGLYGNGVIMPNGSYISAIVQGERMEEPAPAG
# Hsc70 ATP site = Hsc70 inhibitors, probe displacement, primary screen, biochemical, fluorescence polarization (AID 568); Hsc70 fluorescence polarization, probe displacement; higher % means a stronger effect; strong numbers were not always called active; displacement, % at 20 µM, or IC50 in µM where a hit was titrated; 83,000 tested, under 10 active;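 active = displacement above 50% without optical interference and an IC50 on retest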;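 also: ATPase domain with a fluorescein-tagged ATP probe; 0% = vehicle and 100% = excess ADP; read after one hour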
# MT1-MMP reporter = MT1-MMP gene expression reporter suppression – cell-based, luciferase reporter, luminescence (AID 618). MT1-MMP promoter luciferase reporter cells, luminescence. calls from a first round at 10 µM; hits with a dose series show EC50 in µM. 87,000 compounds, 0.62% hits;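 active = over half of the reporter light lost at 10 µM or EC50 under 50 µM; inactive = the rest and hits that failed the dose series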;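 also: actives suppress MT1-MMP promoter-driven transcription so potencies describe inhibitors; HT1080 fibrosarcoma cells; overnight exposure; toxic or luciferase-blocking compounds were not removed from the actives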
# Starred values were filed as active, the others as inactive; i = inactive; nt = no result given. Compounds were not picked by outcome; overall some 0.87% were active at least once.
SMILES,WNV NS2B-NS3 inh,Hsc70 ATP site,MT1-MMP reporter
O=C(CN(C1CCCCC1)S(=O)(=O)c1ccc(F)cc1)NC1CC1,-0.65,1.0%,i
O=C(O)CSCC(=O)Nc1ccc(C2CCCCC2)cc1,nt,-0.9%,0.58µM*
Cc1sc2nc(C3CC3)nc(NCCNS(C)(=O)=O)c2c1C,0.99,-3.9%,i
COc1ccc(NC(=O)c2cc(-c3cc(C)cc(C)c3O)n[nH]2)cc1Cl,0.19,-1.0%,i
O=C(CC(c1ccccc1)c1ccccc1O)N1CCCC1 (centres undefined),nt,5.3%,i
CC(=O)c1cn(CC(=O)Nc2ccccc2C)c2ccccc12,nt,0.7%,i
Cc1ccc(S(=O)(=O)NCCN=C(CN2CCCC2)NS(=O)(=O)c2ccc(C)cc2)cc1,-0.72,-6.6%,i
O=C(Cc1c(O)c2ccccc2[nH]c1=O)NC1CCCCCCC1,-0.65,0.1%,i
CCOC(=O)c1nc2cc3n(c(C)c-2c1C)C(C)C(CC)=C3C (centres undefined),nt,5.8%,i
COc1cc(C2N(c3ccccn3)C(=O)C3CCCN32)cc(OC)c1OC (centres undefined),-0.87,-0.2%,i
COc1ccc2c(c1OC)C(=O)N(c1ccccn1)C2,-0.79,3.6%,i
CN(C(=O)CSc1nc(-c2ccccc2)cn1N)C(c1ccccc1)c1ccccc1,nt,54%,i
CSc1nc2c(c(=O)n1-c1ccccc1)SCC2,nt,-0.1%,i
O=C(CCc1ccc(CCC(=O)c2cccs2)s1)c1cccs1,-0.59,-11%,i
Cc1cc(O)c(NC(=O)c2ccco2)cc1C,0.71,1.5%,i
COc1cc(=O)n(C)c2cc(N(C)C)ccc12,1.4,0.0%,i
O=C(Nc1nc2ccccc2n1CCN1CCCC1)C1CCCCC1,0.51,2.2%,i
O=C(O)COc1ccc2c(c1)CCCC2,-0.54,-2.1%,i
Cc1ccc(NC(=O)N(Cc2ccco2)C(C)c2ccco2)cc1C (centres undefined),0.31,8.2%,i
O=C(O)CCNC(=O)c1cncc(Br)c1,nt,1.8%,i
CS(=O)(=O)N(CC(=O)N1CCN(Cc2ccc3c(c2)OCO3)CC1)c1ccc2c(c1)OCO2,0.8,5.4%,i
CCOC(=O)C1CCN(CC(=O)Nc2c(C(=O)OC)[nH]c3cccc(Cl)c23)CC1,0.41,-1.9%,i
Cc1c(N=C2SCC(=O)N2c2c(C)n(C)n(-c3ccccc3)c2=O)c(=O)n(-c2ccccc2)n1C,-0.25,3.7%,i
Cn1c(=O)c2c(nc(CN3CCN(c4ccccc4F)CC3)n2CCN2CCOCC2)n(C)c1=O,0.54,6.4%,i
O=C(COC(=O)CCS(=O)(=O)c1ccc(Cl)cc1)Nc1ncc(Cl)cc1Cl,-0.77,-2.1%,i
Cc1[nH]c2ccccc2c1C(=O)CN1CCCCC1CCO (centres undefined),0.13,-3.3%,i
COc1c(C)cc(S(=O)(=O)N2CCCC2)c(C)c1C,nt,3.4%,i
CCN(Cc1cc2ccccc2[nH]c1=O)C(=O)C(C)C,-0.18,-5.1%,i
CCOC(=O)c1cc(C(O)(C(F)(F)F)C(F)(F)F)c(/N=C/N(C)C)o1,0.58,-1.1%,i
O=C(O)C1CC(=O)N(Cc2ccc(F)cc2)C1 (centres undefined),2,-1.0%,i
CCC(C)(C)n1nnnc1CN1CCN(c2nc3ccc(C)cc3cc2C#N)CC1,nt,1.1%,i
CC(=O)N1C=CN(C(C)=O)C(c2cn(C)c3ccccc23)C1c1cn(C)c2ccccc12 (centres undefined),0.34,-1.0%,i
CCN(CC)CCCN1C(=O)C(=O)/C(=C(/O)c2cc(C)ccc2C)C1c1cccnc1 (centres undefined),-0.18,-1.4%,i
Cc1cccc(-c2noc(-c3ccccc3C(=O)NCC3CCCO3)n2)c1 (centres undefined),0.39,-15%,i
CSc1ccc(Cl)c(C(=O)OCC(=O)N2CCOCC2)c1,-0.73,2.5%,i
Nn1c(SCc2ccccc2)nnc1-c1ccccn1,nt,1.8%,i
COc1ccc(-n2nnnc2SCC(=O)Nc2cccc(NC(C)=O)c2)cc1OC,-0.7,2.4%,i
COc1ccc(C(C)(C)C)cc1S(=O)(=O)N1CCN(C)CC1,-0.54,-0.1%,i
CC(O)Cn1cnc2c1c(=O)n(C)c(=O)n2C (centres undefined),-0.39,3.9%,i
CCCCC(=O)OCC(=O)Nc1ccc(OC(F)F)cc1,-0.5,-0.1%,i
Cc1sc2nc(SCC(=O)c3cccs3)n(Cc3ccco3)c(=O)c2c1C,-1.4,4.9%,i
COc1ccc(-c2cn3c(C)c(C(=O)Nc4cc(NC(C)=O)ccc4OC)sc3n2)cc1,-2,-86%,i
Cn1c(Cn2c(=O)sc3ccccc32)nnc1SCC(=O)N1CCCc2ccccc21,-0.78,6.6%,i
CCCCC(=O)NCCc1cc2c(C)ccc(C)c2[nH]c1=O,0.03,1.5%,i
COCCNC(=O)CN1C(=O)CC(C)(C)S(=O)(=O)c2ccccc21,-0.65,-1.0%,i
COc1cccc(C(=O)COC(=O)C(C)N2C(=O)C3C4C=CC(C4)C3C2=O)c1 (centres undefined),nt,-1.5%,i
O=C1NC(c2ccncc2)Nc2ccccc21 (centres undefined),-0.23,-3.3%,i
C=CCOC(=O)C1=C(C)NC(SCC)=C(C#N)C1c1ccc(Cl)cc1 (centres undefined),nt,-2.0%,i
COCCN(CC(=O)NCc1ccc(F)cc1)C(=O)CCC(=O)Nc1ccccn1,-0.9,0.2%,i
CCn1c(SCC(=O)OC2CCCCC2)nnc1-c1ccncc1,-0.26,-9.6%,i

# Record cards (already shown).
# Shown for COc1ccc(-c2cn3c(C)c(C(=O)Nc4cc(NC(C)=O)ccc4OC)sc3n2)cc1 → WNV NS2B-NS3 inh: -2; Hsc70 ATP site: -86%; MT1-MMP reporter: i
# Shown for COc1cccc(C(=O)COC(=O)C(C)N2C(=O)C3C4C=CC(C4)C3C2=O)c1 (centres undefined) → WNV NS2B-NS3 inh: nt; Hsc70 ATP site: -1.5%; MT1-MMP reporter: i
# Shown for CCCCC(=O)NCCc1cc2c(C)ccc(C)c2[nH]c1=O → WNV NS2B-NS3 inh: 0.03; Hsc70 ATP site: 1.5%; MT1-MMP reporter: i

# The list continues:
SMILES,WNV NS2B-NS3 inh,Hsc70 ATP site,MT1-MMP reporter
COc1ccc(CCNS(=O)(=O)c2ccc(S(=O)(=O)N3CCCC3)cc2)cc1OC,-0.01,4.8%,i
CCn1c(SCc2ccccc2)nnc1-c1ccc(S(=O)(=O)N2CCCCC2)cc1,-0.11,-0.8%,i
S=c1[nH]nc(-c2ccncc2)n1Cc1ccco1,-0.72,-7.5%,i
COC(=O)c1sc2nc3c(cc2c1N)C(=O)CC(C)(C)C3,0.02,2.0%,i
Cc1cc(=O)oc2c(CN(C)Cc3ccccc3)c(O)ccc12,11,-0.3%,i
Cc1ccc2nc(N/N=C\c3ccc([N+](=O)[O-])o3)nc(-c3ccccc3)c2c1,nt,-4.2%,i
CCOC(=O)c1c(N)nn(C(C)=O)c1-c1ccccc1,-0.15,5.0%,i
O=C(Cn1cccc1C(=O)c1ccccc1)NCCN1CCCCCC1,1.8,-0.3%,i
O=C1CCCN1CCC1CCN(C2CC(=O)N(Cc3ccc(N4CCCC4=O)cc3)C2=O)CC1 (centres undefined),-1.3,5.6%,i
COc1ccc(OC)c(NC(=O)COC(=O)c2ccc(S(=O)(=O)N3CCOCC3)cc2)c1,-1.4,4.8%,i

# Continued; it opens with the six that closed the last part.
SMILES,WNV NS2B-NS3 inh,Hsc70 ATP site,MT1-MMP reporter
Cc1cc(=O)oc2c(CN(C)Cc3ccccc3)c(O)ccc12,11,-0.3%,i
Cc1ccc2nc(N/N=C\c3ccc([N+](=O)[O-])o3)nc(-c3ccccc3)c2c1,nt,-4.2%,i
CCOC(=O)c1c(N)nn(C(C)=O)c1-c1ccccc1,-0.15,5.0%,i
O=C(Cn1cccc1C(=O)c1ccccc1)NCCN1CCCCCC1,1.8,-0.3%,i
O=C1CCCN1CCC1CCN(C2CC(=O)N(Cc3ccc(N4CCCC4=O)cc3)C2=O)CC1 (centres undefined),-1.3,5.6%,i
COc1ccc(OC)c(NC(=O)COC(=O)c2ccc(S(=O)(=O)N3CCOCC3)cc2)c1,-1.4,4.8%,i
CSCSC1=C(C#N)C(c2ccc(Cl)cc2)C(C(C)=O)=C(C)N1 (centres undefined),-0.65,-1.5%,i
N#Cc1c2c(c[nH]c1=O)CCN2Cc1ccccc1,nt,4.5%,i
OCCNc1ncnc2c1ncn2Cc1ccccc1,0.38,-5.7%,i
CCCCN1C(=O)CC(Nc2ccc(CC)cc2)C1=O (centres undefined),-0.82,1.9%,i
Cc1cc(C)c(NC(=O)CCCN2CCN(C)CC2)c(C)c1,0.78,-8.5%,i
COc1ccc(CCNC(=O)CC(NS(=O)(=O)c2ccc(NC(C)=O)cc2)C(C)C)cc1OC (centres undefined),1.9,-6.0%,i
O=C(NNC1=NCCC1)c1cccc(Br)c1,nt,-0.8%,i
CC(C)c1[nH]c(=O)c(C#N)c2c1COC(C)(C)C2,nt,-4.9%,i
O=C(O)CC(C(=O)NCc1ccccc1)C1CCCO1 (centres undefined),-0.79,-8.5%,i
COc1ccc(CN(C(=O)CSc2nnc(-c3ccc(F)cc3)o2)c2ccc(F)cc2)cc1,-0.63,-7.9%,i
O=C(NCc1ccco1)c1cc2cc3ccc(Cl)cc3nc2o1,-0.02,-4.1%,i
CC12CCC(=O)N1C(C(=O)O)Cc1c2[nH]c2ccccc12 (centres undefined),-0.64,-2.1%,i
Cc1cc(C(=O)Nc2nc3c(C)cccc3s2)c(C)o1,nt,-1.8%,i
CCN(CC)c1ccc2cc(-c3nnc(-c4ccccc4)o3)c(=O)oc2c1,nt,-24%,i
CCn1c(O)c(C=NC2CCCC2)sc1=S,nt,1.7%,i
O=C(Nc1ccc(-c2nc3ncccc3o2)cc1)c1ccc(Br)o1,0.7,-20%,i
COc1ccc(S(=O)(=O)NCCC(C)C)cc1OC,-0.23,1.5%,i
Cc1cc(=S)cc(C)n1CCCn1ccnc1,0.25,2.8%,i
Cc1[nH]n2c(=O)c(C#N)c(-c3ccccc3)nc2c1-c1ccccc1,-0.91,3.7%,i
CC(C)Cc1nc2oc3c(Cl)ncnc3c2c2c1CCC2,nt,-7.5%,i
COC(=O)CC(N)c1ccc(OC)c2ccccc12 (centres undefined),nt,-1.1%,i
CC1=C(C(=O)Nc2ccccc2C)C(c2ccccc2)NC(=O)N1 (centres undefined),0.41,2.8%,i
CN(Cc1c(F)cccc1Cl)c1ccc(S(=O)(=O)N2CCOCC2)cn1,0.68,6.0%,i
COn1c(SCC(N)=O)nc2ccccc2c1=O,0.21,7.9%,i
O=S(=O)(CCc1ccccc1)N1CCOCC1,-0.88,1.0%,i
COc1ccc(CNC(=O)COC(=O)c2cc(-c3cccs3)nc3ccccc23)cc1OC,nt,-0.8%,i
O=C(CCn1c(=O)[nH]c2ccccc2c1=O)N1CCN(c2cccc(C(F)(F)F)c2)CC1,-0.18,-1.8%,i
CC1(C)OC(=O)N(c2ccccn2)C1(C)O (centres undefined),-0.57,-2.6%,i
O=C1CSC(=Nc2ccc(O)cc2)N1c1ccc(O)cc1,-0.29,-9.7%,i
CCOC(=O)CC(=O)CSc1nc(N)c(C#N)c(-c2ccc(F)cc2)c1C#N,-0.77,-4.1%,i
CC1Oc2ccccc2N(Cc2ccccc2F)C1=O (centres undefined),0.55,-5.5%,i
COc1ccc(NC(=O)Nc2ccc(OCC(=O)N3CCOCC3)cc2)cc1OC,-0.59,-0.6%,i
O=C(c1ccc(CNc2c(N3CCCC3)c(=O)c2=O)cc1)N1CCc2ccccc2C1,0.06,6.8%,i
CC(=O)Nc1c(C(=O)N2CCCCCC2)cnn1-c1ccccc1,nt,4.5%,i
COC(=O)[C@@H](NC(=O)NCc1cccs1)C(C)C,0.15,1.0%,i
COc1ccc(F)cc1S(=O)(=O)N1CCCN(S(=O)(=O)c2cc(F)ccc2OC)CC1,-0.41,4.3%,i
CCS(=O)(=O)CCSc1nc2c(cc1C#N)CCCC2,-0.32,-2.6%,i
Cc1ccccc1-c1nc(CS(=O)(=O)CC(=O)N2CCc3ccccc3C2)c(C)o1,-0.21,-1.8%,i
O=C(c1ccc2c(=O)n(C3CCCC3)c(=S)[nH]c2c1)N1CCN(C2CCCCC2)CC1,-1.6,-8.0%,i
CN(C)CCNC(=O)COc1cccc(Cl)c1,0.78,5.9%,i
CC1Cn2c(nnc2-c2ccccc2O)S1 (centres undefined),0.92,-1.6%,i
CCOc1ccccc1NC=C1C(=O)OC2(CCCCC2)OC1=O,nt,2.3%,i
O=C(CSC1=NCCN1)NC1CCCCCC1,nt,-2.7%,i
COc1ccc(C(=O)n2nc(C)cc2Nc2ccccc2)cc1,nt,-3.2%,i
O=C(NCC1CCCO1)c1ccc(Cl)c(F)c1F (centres undefined),0.63,-0.6%,i
COC(=O)CC1=Nc2ccccc2NC(=O)C1,0.12,-3.8%,i
CCCCNc1nc2c(c(=O)n(C)c(=O)n2C)n1Cc1cccc(OC)c1,-0.54,-1.9%,i
COc1cccc(-c2csc(N3CCN(Cc4ccccc4)CC3)n2)c1,-0.67,-16%,i
Cn1c(=O)[nH]c(=O)c2c1nc(OC(=O)c1ccccc1)n2CC(O)COc1ccc(F)cc1 (centres undefined),-1.6,-6.5%,i
COC(=O)COc1nc(C)c(Br)c(OC)n1,-0.99,2.3%,i
O=C(O)CCN(CCC(=O)O)S(=O)(=O)c1ccccc1,-0.12,2.0%,i

# High-throughput results as filed in PubChem.
